Source: PubChem BioAssay (National Center for Advancing Translational Sciences (NCATS))
LASV entry inh: blocks Lassa virus binding or cell entry; Potency, µM (top dose mostly 49.2 µM), for inactives: at the top dose activity change, negative = inhibition, most hits filed as inhibitors; AID 720533; Lassa virus pseudotyped entry inhibition, cell-based qHTS; control for the full effect not named in the record; many of its hits are not listed in these tables; 18,000 tested, 4.1% active; active = well fitted inhibition curve with a large enough effect; inconclusive = small, poorly fitted or top-dose-only effect; inactive = no such curve, though single readings can be large or run the other way; tested in HEK293 cells; further: luciferase read-out
MARV entry inh: blocks Marburg virus binding or cell entry. Marburg virus pseudotype entry/binding inhibition, cell-based; control for the full effect not named in the record; many of its hits are not listed in these tables. 18,000 tested, 6.5% active. Potency, µM (doses to about 49.2 µM), inactives show top-dose activity change, negative = inhibition, hits mostly inhibitors. AID 720532; active means well fitted inhibition curve with a large enough effect; inconclusive means small, poorly fitted or top-dose-only effect; inactive means no such curve, though single readings can be large or run the other way; tested in HEK293 cells; further: luciferase read-out
* = called active by the depositor; u = inconclusive; x = no result given; & = joins results of further samples; [ ] = remark or other dose. On the % scale 0 is the no-effect control and ±100 the full control effect; potency means the concentration at half of the fitted maximal effect. These rows are one share of the data, so the mix of outcomes need not match the whole.

SMILES	LASV entry inh	MARV entry inh
O=C(c1ccc(C(F)(F)F)cc1)N1CCC(=O)N([C@H](COCc2ccc(Cl)cc2)Cc2ccccc2)CC1	28.2µM*	u
COC(=O)N[C@@H](/C=C/c1ccccc1)C[N+](=O)[O-]	-13.8%	-16.3%
O=C(Nc1ccc(C(=O)N2CCCC2)cc1)C1CCCCC1	17.2%	32.1%[activator]
CN1C(=O)COc2c(C(=O)NC3CN4CCC3CC4)cc(Cl)cc21 (stereo not given)	u	u
CCOC(=O)[C@]12C[C@@H]3OCCN(C(=O)N[C@@H]1c1ccccc1)[C@@H]32	-5.6%[8.59 µM]	1.5%[8.59 µM]
COc1cc(CN2CCCC(n3cc(C(=O)N4CCCCC4)nn3)C2)cc(OC)c1 (stereo not given)	-3.7%	11.0%
O=S(=O)(O)C(F)(F)C(F)(F)C(F)(F)C(F)(F)F	-13.8%[107 µM]	-12.5%[107 µM]
CN(CCc1ccccc1)c1cc2c(c3c1ccn3C)C1CCC2C1 (stereo not given)	-13.2%	u
C#C[C@]1(O)CC[C@H]2[C@@H]3CCc4cc(OC)ccc4[C@H]3CC[C@@]21C	-13.7%	10.6%
COc1cc(/C=C\C(=O)N2CCC=CC2=O)cc(OC)c1OC	u	8.91µM*
CCCCC(C)(C)[C@H](O)/C=C/[C@H]1[C@H](O)CC(=O)[C@@H]1C/C=C\CCCC(=O)O	-9.3%&-2.6%	13.6%&-5.9%
O=C(NCO)c1cccnc1	-8.6%	22.2%
CC(=O)[C@]12C[C@]3(C)CCCN(C(=O)N[C@@H]1c1ccccc1)C32 (stereo not given in full)	x	u
Nc1nc(SCc2ccc([N+](=O)[O-])cc2)c2ncn([C@@H]3O[C@H](CO)[C@@H](O)[C@H]3O)c2n1	7.1%	12.5%
CC(C)[C@@H](OCc1ccccc1)[C@H](C)C=NOC[C@@H](C)[C@H](OCc1ccccc1)C(C)C	8.9%[8.59 µM]	25.4%[8.59 µM]

A run of entries from further up, for reference:
SMILES	LASV entry inh	MARV entry inh
COC(=O)N[C@@H](/C=C/c1ccccc1)C[N+](=O)[O-]	-13.8%	-16.3%
O=C(Nc1ccc(C(=O)N2CCCC2)cc1)C1CCCCC1	17.2%	32.1%[activator]
CN1C(=O)COc2c(C(=O)NC3CN4CCC3CC4)cc(Cl)cc21 (stereo not given)	u	u
CCOC(=O)[C@]12C[C@@H]3OCCN(C(=O)N[C@@H]1c1ccccc1)[C@@H]32	-5.6%[8.59 µM]	1.5%[8.59 µM]
COc1cc(CN2CCCC(n3cc(C(=O)N4CCCCC4)nn3)C2)cc(OC)c1 (stereo not given)	-3.7%	11.0%

(cont.)
SMILES	LASV entry inh	MARV entry inh
Cc1cc(OCc2cn(CC(=O)c3ccc(O)cc3)nn2)ccc1[N+](=O)[O-]	7.7%	18.6%
COc1cc(C)c(CN2CCC3(CCC(CNC(=O)c4ccnn4C)O3)CC2)cc1C (stereo not given)	2.6%	u
Cc1cc(O)cc(O)c1C(=O)OC1(C)C(=O)C=C2C=C(C=CC(=O)O)OC=C2C1=O (stereo not given)	11.0%[8.59 µM]	-31.0%[8.59 µM]
CCCCC(C=O)NC(=O)C(CC(C)C)NC(=O)OCc1ccccc1 (stereo not given)	-12.9%	u
COc1cccc([C@@H]2Oc3ccc(Br)cc3C(=O)[C@@H]2OC(=O)Nc2ccc(OC(F)F)cc2)c1	110.2%[activator][8.59 µM]	39.4%[activator][8.59 µM]
COc1cc(C)c(CN2CCc3nnc(C(C)NC(=O)c4cc(F)ccc4F)n3CC2)cc1C (stereo not given)	1.5%	-3.8%
O=C(CCn1cncn1)NCC1Cc2cc(-c3ccsc3)cc(Cl)c2O1 (stereo not given)	-1.1%	10.1%
COC(=O)[C@@H]1C[C@@H](NC(=O)c2ccc(C(F)(F)F)cc2)CN1Cc1cccc(O)c1	-17.2%	-26.4%
COC(=O)N[C@H](C(C(=O)OC)=C(C)NCc1ccccc1)c1ccco1	12.9%[8.59 µM]	-23.9%[8.59 µM]
CC(Nc1oc(-c2ccccc2)nc1-c1cccc2ccccc12)c1ccccc1 (stereo not given)	10.1%	-9.5%
COC(=O)C1(C(=O)OC)CC2=CC(CC2=O)Cc2ccccc2[C@@H]1C[N+](=O)[O-] (stereo not given in full)	-5.8%	2.4%
CCOC(=O)C1C(C(=O)OC)=C(C(=O)OC)c2ccccc2N1S(=O)(=O)C(F)(F)F (stereo not given)	-6.8%	-2.4%
CCCCCCN1C[C@@H](O)[C@H](n2cc(C3CC3)nn2)C[C@H]1c1ccc(C)cc1	x	-48.8%
COc1cc(CN2CCOc3ccc(C(O)c4cccnc4)cc3C2)cc(OC)c1 (stereo not given)	-9.8%	-1.8%
COc1cc(CN2CCC3(CCC(CNC(=O)c4cc(C)nn4C)O3)CC2)ccc1F (stereo not given)	-1.2%	-32.3%
CN(C)C(=S)SC(=S)N(C)C	-13.2%	-23.7%
O=C(O)[C@@H](O)[C@@H](O)[C@H](O)[C@H](O)CO	8.3%	-7.6%
CC1=CC[C@@H](COc2ccccc2)O[C@@]2(C1)C(=O)N(Cc1ccc(Br)cc1)c1cccc(Br)c12	10.3%[8.59 µM]	46.4%[8.59 µM]
C=C(C)C(=O)C=Cc1ccc(Br)cc1	5.0%[8.59 µM]	6.0%[8.59 µM]
COc1ccc(CNCCS(=O)(=O)NCc2ccc(OC)cc2)cc1	11.6%	19.7%
Cn1c(SCC2CCCO2)nnc1C1CCN(Cc2ccccc2O)CC1 (stereo not given)	-2.0%	3.1%
COCCN(CCOC)Cc1cc(=O)oc2cc(C)cc(C)c12	51.9%[activator]	u
COc1c(-c2ccccc2)oc2c(ccc3occc32)c1=O	-18.5%	12.0%
O=C1OC2(CCCCC2)CC2=C1[C@H]1O[C@](c3ccsc3)(Cc3ccccc31)O2	-10.8%[8.59 µM]	35.0%[activator][8.59 µM]
Cc1cccc(C(=O)N2CCC(=O)N([C@H](COCc3ccc(Cl)cc3)Cc3ccccc3)CC2)c1	u	u
COc1ccc(/C=C/c2cc(OC)c(OC)cc2CC[N+](C)(C)C)cc1	-2.0%	-5.4%
CCCCC1=CC2=CC(=O)C(C)(OC(=O)c3cccs3)C(=O)C2=CO1 (stereo not given)	-2.7%	14.7%
Cn1ccc2c(N3CCOCC3)cc3c(c21)C1CCC3C1 (stereo not given)	12.4%	-25.7%
C[C@@H]1CN(Cc2ccc3c(c2)CN(C(=O)c2ccc(Oc4ccccc4)o2)CCO3)C[C@H](C)O1	-23.7%	-25.3%
C=C1C(c2ccc(C)cc2)=CCc2cc(C)cc(C)c21	u	3.7%&29.8%
COc1ccc(C(=O)NCc2nc(-c3ccccc3NC(=O)c3cc(C)oc3C)oc2C)cc1F	-1.6%	6.3%
COc1ccc2c(c1)C(c1ccccc1C)CC(=O)O2 (stereo not given)	-3.0%	36.0%[activator]
OC[C@@H]1[C@@H](c2ccccc2)C(c2ccc(F)cc2)=NN1c1ccccc1	-11.5%	-24.9%
Cc1ccc(C(=O)Nc2cccc(-c3nc(CNC(=O)C4CCCCC4)c(C)o3)c2)s1	u	-10.2%
COc1ccc(-c2oc3ncnc(N)c3c2-c2ccc(NC(=O)Nc3cc(C(F)(F)F)ccc3F)cc2)cc1	x	12.5µM*
Brc1c(Br)c(Br)c2[nH]cnc2c1Br	8.6%	-22.0%
CC(=O)[C@]12[C@H](c3ccccc3)[C@@H]3CCN(C(=O)N[C@H]1c1ccccc1)[C@@]32C	-1.4%[8.59 µM]	-11.2%[8.59 µM]
CC(C)C1C(=O)N(Cc2cn(CCC3OCCCO3)nn2)CCS(=O)(=O)N1Cc1ccc(-c2ccc(Cl)nc2)cc1 (stereo not given)	7.7%	4.9%
Cc1cccc(CN2C[C@H](Sc3ccccn3)C[C@H]2C(=O)Nc2ccc3sc(C)nc3c2)c1	-17.1%	-3.4%
Oc1cc[c]([Hg][Cl])cc1	4.47µM*	3.55µM*
CC(C)(N=NC(C)(C)C(=N)N)C(=N)N	7.6%	4.9%
CN(C)C(=O)NC1CCCCCCC1	10.6%	11.1%
COc1cccc(C(=O)CC2c3c(c(Br)c4c(c3OC)OCO4)CCN2C)c1 (stereo not given)	-23.8%	6.1%
CC(C(=O)O)C1CCC2C3CC=C4CC(O)CC[C@@]4(C)C3CC[C@]12C (stereo not given in full)	-17.2%	-11.9%
COC(=O)[C@H](Cc1ccccc1)N1C[C@@H](N2CCC[C@@H]2C)C[S+]1(=O)[O-]	13.6%	20.4%
CCCCC(C#N)(Cn1cncn1)c1ccc(Cl)cc1 (stereo not given)	-15.7%	-23.2%
Nc1nc2c(ncn2C2OC(CO)CC2O)c(=O)[nH]1 (stereo not given)	-0.6%	7.8%
OC[C@H]1O[C@@H](n2cnc3c(NCc4ccccc4)ncnc32)[C@H](O)[C@@H]1O	u	28.2µM*
Cc1noc(C)c1-c1nccc(NCc2cccnc2)n1	-0.7%	0.0%
CC(CCC(=O)O)C1CCC2C3CC[C@@H]4CCCC[C@@]4(C)C3CC[C@@]12C (stereo not given in full)	u	-0.6%
COC(=O)[C@@H](NC(=O)O[C@@H]1C(=O)c2cc(Br)ccc2O[C@H]1c1cccc(OC)c1)C(C)C	-8.9%	u
CC(=O)Oc1c(-c2ccccc2)oc2c(CC=C(C)C)c3c(c(OC(C)=O)c2c1=O)C=CC(C)(C)O3	0.8%	1.1%
CC(C)(O/N=C(\C(=O)N[C@@H]1C(=O)N2C(C(=O)[O-])=C(C[n+]3ccccc3)CS[C@H]12)c1csc(N)n1)C(=O)O	-7.7%[17.8 µM]	-15.2%[17.8 µM]
COc1ccccc1-c1cncnc1-n1ccnc1	23.5%	-0.1%
CCN(CC)CCOc1ccc2c(c1)C(=O)c1cc(OCCN(CC)CC)ccc1-2	u	6.31µM*
CCCC1CCCCN1 (stereo not given)	-4.2%	3.6%
COC(=O)N1[C@H]2CC[C@@]3(C)C=C(C)O[C@]1(C)C3c1ccccc12	u	23.5%
CC1=CC[C@@H](C)O[C@@]2(C1)C(=O)N(Cc1ccc(F)cc1)c1ccccc12	-9.1%[8.59 µM]	40.6%[activator][8.59 µM]
CCCCC/C=C\C/C=C\C/C=C\C/C=C\CCCC(=O)NCCCC(=O)O	-3.5%&-10.8%	-3.8%&-20.5%
COc1cc(C[C@@H](C)N)c(OC)cc1Br	u	u

A different layout for two compounds above.
SMILES | LASV entry inh | MARV entry inh
COC(=O)[C@@H](NC(=O)O[C@@H]1C(=O)c2cc(Br)ccc2O[C@H]1c1cccc(OC)c1)C(C)C | -8.9% | u
CCCCC(C#N)(Cn1cncn1)c1ccc(Cl)cc1 (stereo not given) | -15.7% | -23.2%

Additional entries follow:
SMILES	LASV entry inh	MARV entry inh
COc1cc(-c2c(OC)cccc2OC)cc2c1OCCN(C(=O)CCn1nc(C)cc1C)C2	-13.5%	-3.7%
CCCCNC(C)(C)[P+](=O)O	-1.3%	18.0%
CN[C@H]1CCc2cc(OC)c(OC)c(OC)c2-c2ccc(OC)c(=O)cc21	-25.0%	u
CCOP(=O)(OCC)O/C(=C/Cl)c1ccc(Cl)cc1Cl	-20.7%	-11.1%
CCCC(=O)NCCc1c(I)[nH]c2ccc(OC)cc12	-6.3%	14.6%
COc1ccccc1C1CN(CCNC(=O)C2=CCCC2)Cc2ccccc2O1 (stereo not given)	-14.7%	-15.4%
C=C(C(=O)C(C)(C)O)C(O)c1ccc([N+](=O)[O-])cc1 (stereo not given)	1.7%	7.1%
COCC=CC1=CC2=CC(=O)C(C)(OC(=O)c3cnc4ccccc4n3)C(=O)C2=CN1Cc1ccccc1 (stereo not given)	4.2%[8.59 µM]	18.6%[8.59 µM]
O=c1cc(-c2ccccc2Cl)oc2cc(O)cc(O)c12	65.2%[activator]	105.0%[activator]
CCC(CCC(C)C1CCC2C3CCC4CC(O)CC[C@@]4(C)C3CC[C@@]12C)C(C)C (stereo not given in full)	4.4%	-17.8%
CCCCNc1cccc2c1S(=O)(=O)N[C@@H](Cc1ccccc1)CO2	15.1%	-10.9%
c1cc2c(cc1[C@H]1OC[C@@H]3[C@H]1CO[C@H]3c1ccc3c(c1)OCO3)OCO2	0.8%	20.5%
COc1ccc(OC)c(CN2CCCC(n3cc(C(=O)N4CCCCC4)nn3)C2)c1 (stereo not given)	3.5%	13.8%
COc1ccc2c(c1)C(=O)[C@@H](OC(=O)Nc1ccc(C)c(Br)c1)[C@H](c1ccc(OC)c(Br)c1)O2	-6.3%	-5.7%
C[C@H]1Cc2c(-c3ccccc3)nc3c(c2CO1)CN(S(=O)(=O)c1ccc(Cl)c2nonc12)CC3	-12.5%[8.59 µM]	u
Cc1o[nH]c(=O)c1CCC(N)C(=O)O (stereo not given)	20.6%	12.3%
CC(C)(C)[C@]1(O)C[C@@H]2OC(=O)C[C@@]23C(=O)O[C@@H]2OC(=O)[C@H](O)[C@]213	-23.1%&-13.3%	-10.9%&11.4%
CC1OC(C)OC(C)O1 (stereo not given)	-15.5%&-3.6%	-0.8%&1.0%
COc1cc(OC)c2c(-c3cccc(-c4ccc(NC(C)=O)cc4)c3)cc(=O)oc2c1	-29.3%	u
C[C@H](N)CCP(=O)(O)O	3.8%	2.0%
O=C(O)[C@H](Cc1c[nH]c2ccccc12)N1C(=O)C2=CCCC=C2C1=O	-1.0%	6.8%
O=C(NCCOc1ccccc1)O[C@@H]1C(=O)c2cc(Br)ccc2O[C@H]1c1ccc2c(c1)OCO2	7.6%	u
COCCN1C(=O)NC(c2cccc(F)c2)C(C(C)=O)=C1C (stereo not given)	4.6%[8.59 µM]	-6.0%[8.59 µM]
